GLA inh pH 4.5 = alpha-galactosidase A (human) inhibition, pH 4.5. purified enzyme, 4-MU-alpha-Gal fluorescence, pH 4.5. activity change, negative = inhibition, % at 105 µM. 230,000 tested, under 10 active; inconclusive = small, poorly fitted or top-dose-only inhibition, or a rising curve; inactive = flat fitted curve, though single readings scatter; no compound was filed as active;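 also: 0% = full activity with enzyme and -100% = basal without enzyme; dose as in the result columns while the protocol names 77 µM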
Rango release inh = inhibitors of RanGTP-induced Rango-importin beta complex dissociation. O95149+P62826. hit rate 0.071% among 340,000. Biochemical FRET Rango-importin beta, RanGTP-induced dissociation. AID 540253. Potency, µM (titrated, usually from 46.1 µM), for inactives: top-dose activity change, negative = inhibition; active means falling FRET ratio curve, often poorly fitted, with flat reads before Ran was added; inconclusive means other falling curves, or compound fluorescence or quenching; inactive means flat or rising ratio curve;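 also: potency is read from the fitted curve at half-maximal effect; % of control where 0% means no effect; nearly all actives have a fitted effect of over 45% in size; -100% = wells without RanGTP and RCC1; the record marks most hits as doubtful in a second field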
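Compounds preincubate 5 min with complex of recombinant Rango and importin beta in PBS with 1 mM DTT. Ran (0.6 uM) loaded with 2 mM GTP plus 0.2 uM RCC1 starts dissociation; FRET is recorded 45 min later.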
Rango complex inh = Rango-importin beta binding inhibition | Rango CFP/YFP FRET sensor + importin beta, 45 min | AID 540263 | hit rate 0.031% among 340,000 | Q14974 | Potency, µM (series often up to 92.2 µM), inactives show top-dose inhibition of complex formation; active = rising FRET ratio curve, often small or poorly fitted; inconclusive = mostly compound fluorescence or quenching in the first reads; inactive = flat curves in all reads;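 also: potency is read from the fitted curve at half-maximal effect; 0% = DMSO wells and 100% = buffer wells lacking importin beta; nearly all actives have a fitted effect of over 15% in size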
Target sequence (Q14974 whole entry, looked up): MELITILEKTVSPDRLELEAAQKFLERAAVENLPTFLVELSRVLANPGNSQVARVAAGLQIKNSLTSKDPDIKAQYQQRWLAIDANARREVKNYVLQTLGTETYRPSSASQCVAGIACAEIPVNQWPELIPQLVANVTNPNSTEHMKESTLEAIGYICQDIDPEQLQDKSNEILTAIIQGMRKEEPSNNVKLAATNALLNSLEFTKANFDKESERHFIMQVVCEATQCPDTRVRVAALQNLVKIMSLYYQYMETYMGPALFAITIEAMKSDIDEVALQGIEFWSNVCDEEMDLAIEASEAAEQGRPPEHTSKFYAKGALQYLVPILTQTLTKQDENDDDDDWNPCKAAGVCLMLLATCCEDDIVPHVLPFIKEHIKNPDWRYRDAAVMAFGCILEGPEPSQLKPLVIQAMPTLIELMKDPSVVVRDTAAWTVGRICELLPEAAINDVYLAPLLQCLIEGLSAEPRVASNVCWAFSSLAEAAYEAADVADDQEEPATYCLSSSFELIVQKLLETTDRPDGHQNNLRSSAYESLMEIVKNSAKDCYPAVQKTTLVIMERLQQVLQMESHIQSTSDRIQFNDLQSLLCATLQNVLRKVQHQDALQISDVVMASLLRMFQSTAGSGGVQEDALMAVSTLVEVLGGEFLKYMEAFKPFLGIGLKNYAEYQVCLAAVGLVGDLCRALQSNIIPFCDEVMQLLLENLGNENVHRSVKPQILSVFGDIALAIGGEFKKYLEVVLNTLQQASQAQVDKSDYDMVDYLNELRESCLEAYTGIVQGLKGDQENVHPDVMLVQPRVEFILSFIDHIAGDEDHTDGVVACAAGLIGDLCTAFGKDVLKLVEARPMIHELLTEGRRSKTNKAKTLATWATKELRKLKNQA
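Inhibition scored from the CFP 486 nm/YFP 530 nm FRET ratio 45 min after adding 0.125 microM importin beta to 50 nM Rango biosensor preincubated 5 min with compound (room temperature, PBS with DTT, Tween-20, BSA). No-importin wells as positive control.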
miR-21 FLuc = miR-21 reporter, rising signal; 340,000 tested, under 10 active; Potency, µM (titrated, usually from 38.3 µM), for the others: at the highest dose reporter change, positive = more light; HeLa miR-21 FLuc reporter, luciferase, 48 h; active = well fitted rising curve with a large enough effect; inconclusive = small, poorly fitted or top-dose-only effect; inactive = no such curve, though single readings can be large or run the other way;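 also: % of control where 0% means no effect; miR-21 action dims this reporter so a rising signal means less miR-21 action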
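Using DMEM plus 10% FBS, HeLa miR-21-FLuc cells are incubated with test compounds (final up to about 40uM) for 48 hours; firefly luciferase signal is then imaged following reagent-mediated lysis.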
Numbers without * were called inactive; u = inconclusive; x = not tested or not shown; & = joins results of further samples.

SMILES | GLA inh pH 4.5 | Rango release inh | Rango complex inh | miR-21 FLuc
O=C(c1ccco1)N1CCN(C(=O)c2cnn3cccnc23)CC1 | 4 | -1% | -0.5% | -5%
Cc1ccc(NC(=O)CCn2c(=O)oc3ccccc32)cc1 | -9 | -16% | -1.6% | -19%
Cc1c(Cl)c([N+](=O)[O-])nn1Cc1ccc(C(=O)NN)o1 | 3 | 0% | -0.1% | -13%
O=C(Nc1nc(-c2ccco2)c(-c2ccco2)s1)c1ccc(F)cc1F | x | u | u | x
CCOC(=O)c1c(C)[nH]c(C(=O)CN2C(=O)NC3(CCCC3)C2=O)c1C | 2 | -19% | -1.9% | -42%
O=C(CCSc1ccccc1)NC(=O)COC(=O)c1ccc(OC(F)F)cc1 | -2 | -1% | 0.7% | -1%
O=C(/C=C/c1cccc(Cl)c1)NCc1ccccc1 | -5 | 6% | -1.8% | -14%
O=C(COC(=O)c1ccc2c(c1)OCO2)NC1CCS(=O)(=O)C1 (stereo not given) | 4 | 18% | 2.0% | -3%
CC(C)(C)NC(=O)c1cccc(NC(=O)c2ccc3c(c2)C(=O)N(C(C)(C)C)C3=O)c1 | x | -9% | -2.3% | 1%
COC1=C(C)C(O)=C(C(=O)/C=C/c2ccccc2)C(=O)C1(C)C | -3 | 4% | -2.6% | 4%
c1cn2c(NC3CCCC3)c(-c3ccc(N4CCOCC4)cc3)nc2cn1 | -1 | u | u | -65%
COc1cc(OC)cc(C(=O)NCC(=O)NCC(c2ccco2)N2CCCCC2)c1 (stereo not given) | x | -9% | 0.7% | x
Cc1cccc(NC(=S)NCCC(c2ccccc2)c2ccccc2)c1 | 0 | -1% | -0.7% | 19%
COc1ccc2oc(=O)c(C(=O)Nc3cccc(C)c3)cc2c1 | -4 | -1% | 6.8% | -59%
COc1ccc(Br)cc1S(=O)(=O)N1CCOCC1 | -10 | 2% | -0.7% | -17%
CC(NC(=O)Cc1ccc(S(=O)(=O)N2CCOCC2)s1)c1ccc(Cl)cc1Cl (stereo not given) | x | 0% | -3.2% | x
COc1ccccc1CNC(=O)C1CC(c2ccccc2[N+](=O)[O-])=NO1 (stereo not given) | 1 | 25% | 0.1% | -44%
O=C(COC(=O)CNS(=O)(=O)c1ccc(F)c(F)c1F)NCCc1ccccc1 | x | 8% | -0.3% | -44%
COC(=O)c1ccc(OC(=O)CCN2c3ccccc3Sc3ccccc32)cc1 | -7 | 1% | 4.6% | 0%
CC(=O)Nc1ccc(S(=O)(=O)NCC(=O)NCCc2ccc(S(N)(=O)=O)cc2)cc1 | -3 | 2% | -3.1% | 0%
NC(=NCc1ccco1)NC(=O)c1ccc(Cl)cc1 | x | 9% | -0.3% | -43%
COc1ccc(OCC(=O)Nc2ncc3c(n2)CC(C)(C)CC3=O)cc1 | 5 | 1% | -1.5% | 0%
Cc1ccc2nc(SCC(=O)N3CCN(C(=O)c4ccco4)CC3)[nH]c2c1 | 5 | 13% | 2.9% | -4%
CCCc1cc(=O)[nH]c(SCc2cc(=O)oc3c(C)c(C)ccc23)n1 | -6 | 3% | 8.1% | -5%
FC(F)(F)c1cccc(N2CCN(CC3CC=CCC3)CC2)c1 (stereo not given) | -1 | 8% | 3.1% | 5%

Full records, quoted from the list. Values in the order: GLA inh pH 4.5 | Rango release inh | Rango complex inh | miR-21 FLuc
COc1ccccc1CNC(=O)C1CC(c2ccccc2[N+](=O)[O-])=NO1 (stereo not given) reads 1 | 25% | 0.1% | -44%
COC(=O)c1ccc(OC(=O)CCN2c3ccccc3Sc3ccccc32)cc1 reads -7 | 1% | 4.6% | 0%
O=C(CCSc1ccccc1)NC(=O)COC(=O)c1ccc(OC(F)F)cc1 reads -2 | -1% | 0.7% | -1%
CCCc1cc(=O)[nH]c(SCc2cc(=O)oc3c(C)c(C)ccc23)n1 reads -6 | 3% | 8.1% | -5%
FC(F)(F)c1cccc(N2CCN(CC3CC=CCC3)CC2)c1 (stereo not given) reads -1 | 8% | 3.1% | 5%

Continued:
SMILES | GLA inh pH 4.5 | Rango release inh | Rango complex inh | miR-21 FLuc
O=C(Nc1cccc(-c2csc(Nc3ccc(Cl)cc3)n2)c1)c1ccccc1 | -20 | -9% | -2.8% | 25%
CC(=O)Nc1ccc(CN2CCN(CCC(C)C)C(CCO)C2)cc1 (stereo not given) | -5 | 11% | 0.0% | -3%
CCOc1ccc(S(=O)(=O)NN=C2CCN(C(C)=O)CC2)cc1 | 3 | 6% | -1.0% | -1%
Cc1cc(C(=O)N2CCCC(C(=O)c3cccc(C(F)(F)F)c3)C2)nc(C)n1 (stereo not given) | -30 | -21% | 4.6% | -6%
CCSc1nnc(NC(=O)COc2cccc3ccccc23)s1 | 0 | -3% | -0.9% | -5%
CCCn1c(N)c(C(=O)COC(=O)c2cccc(S(=O)(=O)N3CCOCC3)c2)c(=O)[nH]c1=O | x | 31% | 2.5% | x
CN(C)C=NC(=O)/C(C#N)=C/c1ccccc1 | -2 | -7% | u | -5%
CS/C(=C/[N+](=O)[O-])Nc1cccc2c1C(C)CC2(C)C (stereo not given) | 5 | -4% | 1.6% | -2%
N#C/C(=C(/O)CSc1nnc(Cc2cccs2)n1C1CCCCC1)c1nc2ccccc2[nH]1 | -6 | 0% | 0.9% | 1%
Nc1nnnn1-c1cccc([N+](=O)[O-])c1 | x | -5% | -0.3% | x
COc1ccc(/C=N\NC(=O)c2cc(O)c(O)c(O)c2)cc1COc1ccc(C(=O)OCC(C)C)cc1 | x | 19% | -1.2% | 0%
CCCNC(=O)c1ccccc1NC(=O)c1ccccc1N(C)S(=O)(=O)c1ccc(C)cc1 | -1 | 1% | 1.6% | -4%
COc1ccc(-c2nn(-c3ccccc3)cc2CNC(C)Cn2cncn2)c(F)c1 (stereo not given) | 5 | 34% | 2.2% | 2%
Cn1nccc1C(=O)NCCN1C(=O)OC(C)(C)C1(C)O (stereo not given) | 0 | -1% | -2.1% | -3%
CCOc1ccccc1N1CC(C(=O)N(CC)C2CCS(=O)(=O)C2)CC1=O (stereo not given) | x | 9% | -0.4% | x
COCC(C)NC(=O)/C=C/c1ccc(OC)cc1 (stereo not given) | 6 | 18% | 3.4% | -29%
COc1ccc(C2CC(=O)c3c(C)nc(N4CCN(c5ccccc5)CC4)nc3C2)cc1 (stereo not given) | 3 | 11% | 4.3% | 4%
COc1ccc(NCc2nnc(SCC(=O)c3ccc(C)cc3)o2)cc1 | 3 | -12% | -0.1% | -19%
CCN1C(=O)[C@@H]2[C@@H](c3ccc(-c4ccc(C(C)=O)cc4)cc3)N3CCC[C@@]3(C(=O)OC)[C@@H]2C1=O | x | -4% | -0.4% | x
COc1cc(/C=C/C(=O)O)cc(OC)c1OC | -2&-1 | 5% | 1.0% | 0%
CCCCn1c(N)c(N(CCOC)C(=O)c2cc(-c3ccc(OC)c(OC)c3)nc3ccccc23)c(=O)[nH]c1=O | x | -8% | u | x
CC(C)CCN1CCN(Cc2cc3ccccc3[nH]2)CC1CCO (stereo not given) | x | -9% | u | -2%
O=S(=O)(Nc1ccc(-n2cnnn2)cc1)c1ccccc1F | x | -10% | -0.8% | x
O=C(NNc1nc2ccccc2o1)c1ccccc1 | 5 | 7% | -0.1% | -4%
COc1cc(CC(=O)N(CC(C)C)C2CCS(=O)(=O)C2)cc(OC)c1OC (stereo not given) | x | 1% | -2.9% | x

Entries listed so far containing a CF3 group:
SMILES | GLA inh pH 4.5 | Rango release inh | Rango complex inh | miR-21 FLuc
FC(F)(F)c1cccc(N2CCN(CC3CC=CCC3)CC2)c1 (stereo not given) | -1 | 8% | 3.1% | 5%
Cc1cc(C(=O)N2CCCC(C(=O)c3cccc(C(F)(F)F)c3)C2)nc(C)n1 (stereo not given) | -30 | -21% | 4.6% | -6%

(next part)
SMILES | GLA inh pH 4.5 | Rango release inh | Rango complex inh | miR-21 FLuc
Cc1ccc(OCC(=O)O)c(O)c1 | x | u | 2.1% | x
COc1cccc(N2CCN(CC(=O)NC(C)c3ccccc3)CC2)c1 (stereo not given) | x | 20% | 12% | 0%
Cc1ccc(C)c(Cn2c(=O)n(-c3ccc(CC(=O)NCc4ccco4)cc3)c(=O)c3sccc32)c1 | -8 | 1% | -1.1% | -3%
Cc1ccc2nc(SCc3nnc(-c4ccccc4Br)o3)[nH]c2c1 | -6 | 2% | -0.2% | -14%
CSc1nc(O)c(Nc2ccccc2)c(=O)[nH]1 | x | -2% | 3.0% | x
CCC(CC)C(=O)Nc1ccc(C(=O)c2ccccc2)cc1 | -7 | 24% | 1.6% | -37%
COc1cccc(NC(=O)Nc2cc(C)on2)c1 | x | 11% | -1.4% | -28%
O=C(CN1C(=O)C2CC=CCC2C1=O)NCc1cccs1 (stereo not given) | 0 | 6% | -0.1% | -3%
O=C(CN1C(=O)NC2(CCCC2)C1=O)NCc1ccco1 | x | 9% | -0.8% | x
COCCN(C(=O)c1csnn1)C(C(=O)NC1CCCCC1)c1cccs1 (stereo not given) | 2 | 6% | -1.9% | -6%
COc1ccc(/C=C/C(=O)Nc2ccc3nc4n(c(=O)c3c2)CCCC4)cc1OC | -4 | -7% | 0.5% | -6%
COC(=O)C1=CN(c2ccc(F)cc2)C=C(C(=O)OC)C1c1cccc(Br)c1 | x | -10% | 2.6% | -7%
C=CCNC(=O)CCCOc1cc(C)ccc1C | -2 | 13% | -4.1% | -7%
C=CCNc1oc(-c2ccc(OCC)cc2)nc1C#N | 3 | -18% | -0.3% | -16%
CCN(CC)c1nc2ccccc2n(Cc2cccc(OC)c2)c1=O | x | -2% | -3.3% | 3%
Cc1nn(-c2ccccc2)c2c1C(c1ccccc1)C(C#N)=C(N)O2 (stereo not given) | 3 | 4% | -5.5% | -2%
CCc1cc(=O)oc2cc(OCC(=O)NCCCn3ccnc3)c(Cl)cc12 | x | 7% | u | -2%
CC(=O)Nc1ccc(NS(=O)(=O)c2ccc(-c3csc(C)n3)s2)cc1 | 1 | 28% | -1.1% | -1%
CCc1ccc(NC(=O)Nc2ccc3c(c2)N(C)C(=O)CS3)cc1 | -12 | -3% | -0.1% | 27%
O=C(CCNC(=O)c1ccc(Cl)cc1)NCc1cccc(C(F)(F)F)c1 | x | -5% | -1.8% | x
COc1cccc(OC)c1C(=O)Nc1ccc(Cc2ccncc2)cc1 | -2 | -9% | 5.1% | -17%
CC(C)NC(=O)c1cccc(Br)c1 | -1 | 12% | 2.5% | -2%
COc1ccc(OC)c(NC(=O)c2c(NC(=O)c3ccco3)sc3c2CCC3)c1 | -5 | x | x | -3%
Cc1cc(C)nc(NS(=O)(=O)c2ccc(NC(=O)CN3C(=O)S/C(=C\c4ccccc4)C3=O)cc2)n1 | -14 | 8% | 4.0% | -10%
CCC(Sc1nc2ccccc2c(=O)[nH]1)C(=O)Nc1ccc(C(C)=O)cc1 (stereo not given) | 3 | -16% | 2.5% | -50%

(further entries)
SMILES | GLA inh pH 4.5 | Rango release inh | Rango complex inh | miR-21 FLuc
COc1ccc(-n2c(Cc3cccn3C)nnc2SCC(=O)Nc2cccc(OC)c2)cc1 | -3 | -9% | -1.8% | -2%
CC(O)CNc1nc2c(c(=O)n(Cc3ccc(Br)cc3)c(=O)n2C)n1C (stereo not given) | x | 41% | -3.5% | 5%
C=C(C)Cn1c(CCCNC(=O)CC)nc2ccccc21 | 4 | 1% | -0.6% | -8%
Cc1ccc(C(=O)Nc2nc3ccccc3s2)s1 | 5 | -1% | -1.5% | 0%
Cc1[nH]c2ccccc2c1/C=N/Nc1ccccc1[N+](=O)[O-] | 2 | 17% | 0.9% | -44%
O=C(Nc1ccc(F)cc1)c1cccc(N2C(=O)C3C4C=CC(C4)C3C2=O)c1 (stereo not given) | x | -14% | -3.5% | -1%
Cc1ccccc1-c1cn(-c2ccccc2)c(=S)[nH]1 | x | 17% | 1.1% | 10%
Cc1ccc(N2C(=O)c3ccc(C(=O)NCCN4CCOCC4)cc3C2=O)cc1 | 7 | -8% | 2.9% | 0%
COc1ccc(S(=O)(=O)N2CCOC23CCN(C(=O)c2ccccc2OC)CC3)cc1 | x | 1% | 0.7% | x
COc1cc([C@H](Cc2ccccc2)NC(C)=O)oc(=O)c1 | -4 | -21% | u | 2%
Cc1cc(NC(=O)c2ccc([N+](=O)[O-])cc2)n(CCC#N)n1 | x | -28% | 0.1% | 0%
COCc1cc(C)nc(SC)c1C#N | 4 | u | -0.1% | 0%

High-throughput results (PubChem BioAssay)

These rows are one share of the data; count on the stated rates, not on these rows.
